Compound activity: PubChem BioAssay, National Center for Advancing Translational Sciences (NCATS)
HPGD inh: blocks human HPGD enzyme activity | 150,000 tested, 4.3% active | purified HPGD, NADH fluorescence kinetic, PGE2 substrate | AID 894 | P15428 | Potency, µM, inactives show at the top dose activity change, negative = inhibition, actives largely listed as inhibitors; active = well fitted inhibition curve with a large enough effect (not every such curve was filed as active); inconclusive = small, poorly fitted or top-dose-only effect, or another doubt; inactive = no such curve, though single readings can be large or run the other way;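 further: top concentration of the series not given in the record; plate controls included wells without enzyme; inactives centre near -10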
Target sequence (P15428 whole entry, looked up): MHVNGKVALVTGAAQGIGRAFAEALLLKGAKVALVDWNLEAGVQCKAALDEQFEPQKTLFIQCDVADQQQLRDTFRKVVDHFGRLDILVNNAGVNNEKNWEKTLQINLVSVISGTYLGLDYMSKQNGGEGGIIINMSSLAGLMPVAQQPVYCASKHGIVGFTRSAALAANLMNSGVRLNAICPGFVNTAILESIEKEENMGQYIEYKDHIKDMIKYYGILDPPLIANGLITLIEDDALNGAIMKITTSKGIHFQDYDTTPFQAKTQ
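NADH formation kinetics: reaction with 30 uM PGE2 and 1 mM NAD+ (final), 20 nM enzyme, Tris-HCl pH 8 with Tween 20, after 15 min compound preincubation at room temperature. Fluorescence change, last versus first of five reads.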
An asterisk follows results filed as active; i = inactive; ? = inconclusive; & = joins results of further samples; [ ] = another dose, or the depositor's remark. On the % scale 0 is the no-effect control and ±100 the full control effect; potency means the concentration at half of the fitted maximal effect. The list is partial (hit frequency here may not be typical).

SMILES	HPGD inh
CCCCC(CC)CN1CN(CC(CC)CCCC)CC(C)(N)C1 (centres undefined)	-6%
CC(CSc1nc2ccccc2s1)Cn1c(N2CCCC2)nc2c1c(=O)[nH]c(=O)n2C (centres undefined)	22µM*
O=C(CCn1c(=S)oc2ccccc21)Nc1ccc2c(c1)OCCO2	-10%
O=C(Cn1cccc1C(=O)c1ccccc1)NCc1ccccn1	-5%
Cn1c(SCc2c(F)cccc2Cl)nnc1-c1cnccn1	-22%
Cc1ccccc1Cn1c(Cc2ccccc2)nc2ccccc21	-10%
O=C(c1cc2nc(-c3ccccc3)cc(-c3ccccc3)n2n1)N1CCN(C(=O)c2ccco2)CC1	?
Cc1ccc(-c2csc(NC(=O)C3=NN(c4ccccc4)C(=O)CC3)n2)cc1	-16%
COc1cc2c(cc1OC)C(C)N(C(=O)c1cc3c(=O)oc4ccc(C)cc4c3s1)CC2 (centres undefined)	368%[activator]
CCOc1cc(S(=O)(=O)N2CCCCCC2)ccc1F	-10%
Cn1c(CC(=O)NC(C)(C)CO)c(Sc2ccccc2)c2ccccc21	-11%
OCCN1CCN(CCCN2c3ccccc3Sc3ccc(C(F)(F)F)cc32)CC1	-6%&-5%&-9%&-20%
Cc1ccc(-n2nnnc2SCC(=O)NC2CCCc3ccccc32)cc1 (centres undefined)	-22%
CCc1nc(SCC(=O)Nc2nccs2)c2oc3ccccc3c2n1	-10%
CC(=O)Nc1ccc(S(=O)(=O)NC2=C(N3CCN(c4ccc(F)cc4)CC3)C(=O)c3ccccc3C2=O)cc1	-23%
NC(=O)C1CCN(CC(=O)Nc2ccccc2Sc2ccccc2)CC1	-9%
CCCCNC(=O)CSc1nnc(-c2ccco2)n1C	-11%
CN(CC(=O)NCCCN1CCOCC1)S(=O)(=O)c1ccc(Br)cc1	-15%
COc1ccc(N=NC2=C(O)CC(C)(C)CC2=O)cc1	32µM*
Fc1cccc(-c2nn[nH]n2)c1	-6%
O=C(Cc1cc(=O)[nH]c(=O)[nH]1)NCc1ccc(Cl)cc1	-20%
C=CCn1c(N2CCCCCC2)nc2c1c(=O)[nH]c(=O)n2C	1%
Cc1ccoc1C(=O)Nc1cccc(Oc2ccccc2)c1	-25%
CCN(CC(=O)NC(c1ccccc1)c1ccccc1)Cc1nc2ccccc2c(=O)[nH]1	-18%
O=C(c1ccccc1)N1CCCC(C(=O)N2CCc3ccccc3C2)C1 (centres undefined)	-12%
CN1CCN(CCCc2c3c(cc4c2CCC4)CCC3)CC1	-12%
Cc1cc2oc(C(=O)NC3CCS(=O)(=O)C3)c(C)c2cc1C (centres undefined)	?
CC(C)n1c(-c2ccccc2F)n[nH]c1=S	-9%
CSc1ccc(NC(=O)Nc2cc(C)ccn2)cc1	-14%
O=C(NCc1ccc(F)cc1)c1cc(-c2ccco2)on1	-5%
O=C(c1cnccn1)N(Cc1ccco1)C1(C(=O)NC2CCCCC2)CCCCC1	-8%
N=C1C(c2nc3ccccc3[nH]2)=C(O)CN1NC(=O)COc1cccc(F)c1	-1%
Cc1ccc(NC(=O)CN2C(=O)NC3(CCc4ccccc43)C2=O)cc1Cl (centres undefined)	-12%
Cc1nn(Cc2ccccc2Cl)c(C)c1NC(=O)C1C2CCC(O2)C1C(=O)O (centres undefined)	-1%
COC(=O)[C@H]1Cc2cnoc2C[C@]1(C)C(=O)O	-3%
O=C(c1ccccc1)c1nn(-c2ccc(Cl)cc2)c(=O)cc1C(F)(F)F	-6%
COC(=O)c1ccc(-c2csc(NC(=O)c3ccc(S(=O)(=O)N4CCc5ccccc5C4)cc3)n2)cc1	-21%
O=C(/C=C/c1ccccc1)c1ccccc1	-23%
Cc1nnc2n1NC(c1ccc(Cl)cc1)C(C(=O)N1CCC(C)CC1)S2 (centres undefined)	-2%
CC(=O)OCC(OC(C)=O)C(OC(C)=O)C(OC(C)=O)C(=O)Nc1ccc(C)cc1C (centres undefined)	-3%
O=C(NCc1nc2ccccc2[nH]1)c1cccs1	-6%
Clc1ccc(CN2C3=NCCN3c3ccccc32)cc1	-1%
COCC(O)CNc1ccccc1 (centres undefined)	-5%
CCOC(=O)c1[nH]c2cc(OC)c(OC)cc2c1N	?
Cc1cc(O)ccc1Nc1nc2ccccc2nc1Nc1ccc(O)cc1C	-16%
CCCC(=O)NC(c1cccs1)c1cc([N+](=O)[O-])c2cccnc2c1O (centres undefined)	-20%
CCn1c(Cc2ccccc2)nnc1SCC(=O)OC(C)C	-4%
CCCOc1ccc(-c2c(C(=O)N/N=C/c3ccc(OC)cc3)nnn2-c2nonc2N)cc1	?
CCCCOC(=O)Nc1ccc(S(=O)(=O)Nn2cnnc2)cc1	-9%
Cn1nccc1/C=C(/C#N)S(=O)(=O)c1ccccc1	-1%
CCOC(=O)C(CSCc1ccccc1)NC(=O)OC(C)(C)C (centres undefined)	-4%
O=S(=O)(N1CCCCC1)n1nnc2ccccc21	-6%
COc1cccc(C(C#N)N2N=C(C)CC2(C)C)c1O (centres undefined)	-18%
O=C1c2cccnc2C(=O)N1Cc1ccc(F)cc1	-11%
CCOC(=O)c1ccc(Oc2c(C)oc3cc(OS(C)(=O)=O)ccc3c2=O)cc1	?
COc1cc(OC)c(NC(=O)c2ccc(Br)o2)cc1Cl	-8%
Cc1nc(NC(=S)NC(=O)c2cccs2)ccc1Br	-4%
O=C1c2ccccc2C(=O)N1CCCCON1C(=O)c2ccccc2C1=O	-27%
Cc1ccc(F)cc1NC(=S)NCCc1ccccc1	-28%
Cn1ncc(Br)c1C(=O)Nc1ccc(Br)cn1	-1%

Shown comma-delimited: 3 of the compounds above.
compound,HPGD inh
COc1cccc(C(C#N)N2N=C(C)CC2(C)C)c1O (centres undefined),-18%
CCn1c(Cc2ccccc2)nnc1SCC(=O)OC(C)C,-4%
CCOC(=O)c1ccc(Oc2c(C)oc3cc(OS(C)(=O)=O)ccc3c2=O)cc1,?

Following part:
SMILES	HPGD inh
CCn1c(COc2ccc(=O)n(-c3ccccc3)n2)nnc1SCc1ccc(OC)cc1	-4%
Cc1ccc(C(=O)NNC(=O)CSc2nnc3c(n2)[nH]c2ccc(C)cc23)cc1	-11%
Cc1ccc(S(=O)(=O)/C(C#N)=C/c2c(N3CCN(C)CC3)nc3c(C)cccn3c2=O)cc1	?
Nc1cc(=O)[nH]c(SCc2nnc(-c3ccccc3)o2)n1	-9%
Cc1ccc(Nc2nc(CSc3nnc(-c4cccnc4)n3-c3ccccc3C)cs2)cc1	-29%
CCCCCCn1c(=O)c(-c2nc3ccccc3c(=O)[nH]2)c(O)c2ccccc21	-28%
CCOC(=O)N1CCN(S(=O)(=O)c2ccc(C(=O)NNc3nc4c(C)cccc4s3)cc2)CC1	-11%
CCOC(=O)CSc1nc2ccsc2c(=O)n1C1CCN(C(=O)OCC)CC1	1%
Cc1ccc(C(C(=O)NCc2ccco2)N(C(=O)Cn2nnc3ccccc32)c2ccccc2)o1 (centres undefined)	-1%
CN(Cc1cccc(F)c1)C(=O)c1ccc(S(=O)(=O)C(F)F)cc1	32µM*
Cc1nc(NC(=O)c2ccc(Cl)cc2)nc2cc3c(cc12)OCO3	-29%
O=C(CSCc1ccc(Cl)cc1)NCc1ccccn1	-12%
O=C(NNC(=O)C1CCCO1)c1ccc(F)cc1 (centres undefined)	-6%
COc1cc2ccccc2cc1C(=O)Nc1ccccc1N1CCN(S(C)(=O)=O)CC1	?
COC(=O)[C@H](CC(C)C)NC(=O)NCCCc1ccccc1	1%
CCCCCN(C(=O)NC(=O)Nc1ccc(C)cc1)S(=O)(=O)c1ccccc1	0%
O=C(/C=C/c1cccs1)N1CCN(c2ccccc2F)CC1	1%
COC(=O)C1=C(C)NC(=O)/C1=C\c1cc(C)n(-c2c(C)cccc2C)c1C	-6%
O=C(Nc1ccccc1)OCCOc1ccccc1	-4%
CCCCCn1c(=N)n(CC(O)COc2ccccc2OC)c2ccccc21 (centres undefined)	-2%
O=C(NC1CCCCCC1)C1CCC(CNS(=O)(=O)c2ccc(Br)s2)CC1 (centres undefined)	-4%
CC1CCCN(C(C(=O)Nc2ccc3c(c2)OCO3)c2ccccc2)C1 (centres undefined)	-6%
O=C(CN(CC1CCCO1)C(=O)CCC(=O)Nc1ccccn1)NCC1CCCO1 (centres undefined)	0%
O=C(NC(CO)Cc1ccc([N+](=O)[O-])cc1)C(Cl)Cl (centres undefined)	-3%
O=C(COc1cccc(NC(=O)c2cccc([N+](=O)[O-])c2)c1)c1ccc(F)cc1	-29%
COc1cc(C)c(S(=O)(=O)N2CCOCC2)cc1C(C)C	-6%
O=C(O)Cn1c(-c2cscn2)nc2ccccc21	-12%
Cc1ccc(Cn2c(CN3CCOCC3)nc3c2c(=O)n(C)c(=O)n3C)cc1	-15%
CCCCCCCCCCCCCCCC(=O)NCC(COP(=O)([O-])OCC[N+](C)(C)C)OCC (centres undefined)	-8%
CC(C)SCCCCOc1ccc2ccccc2c1	-12%
CCCCOc1cc(C[C@@H]2CNC(=O)N2)ccc1OC	-1%
CC(=O)c1c(C)[nH]c(C(=O)OC2CCCCC2=O)c1C (centres undefined)	-6%
CNCCCCOc1ccccc1Cc1ccccc1	3%
CCOc1ccc2nc(NC(=O)c3ccc(OC)c(S(=O)(=O)N4CCOCC4)c3)sc2c1	i
CS(=O)(=O)N(CC(=O)N1CCN(c2ccc(F)cc2)CC1)c1cccc(Cl)c1	-14%
CC(NC(=O)c1nn(C)c(=O)c2ccccc12)c1ccccc1 (centres undefined)	-10%
CC1(C)CC(=O)C2=C(C1)NC(Nc1nc3ccccc3o1)=NC21CCCCC1	-17%
O=C1CCC/C1=c1\s/c(=C\c2cccnc2)c(=O)n1-c1ccccc1	-13%
Cc1c(NC(=O)/C(C#N)=C/c2c(Oc3ccccc3)nc3ccccn3c2=O)c(=O)n(-c2ccccc2)n1C	-17%
COCCCNS(=O)(=O)c1ccccc1	-5%
COc1ccccc1C/C(N)=N/OC(=O)c1cccc([N+](=O)[O-])c1C	-16%
COc1ccc(-c2nnc(SC(C)C(=O)Nc3cccc(Cl)c3)o2)cc1 (centres undefined)	-14%
CN(c1ccccc1C(=O)Nc1ccc2c(c1)OCO2)S(C)(=O)=O	-25%
O=C(NC1CCCCC1)N1CCN(C2CCCCC2)CC1	2%
COc1cccc(NC(=O)CCSc2ccc(C)cc2)c1	-21%

As entered above.
`CC(NC(=O)c1nn(C)c(=O)c2ccccc12)c1ccccc1` (centres undefined) in HPGD inh = -10%
`CCCCOc1cc(C[C@@H]2CNC(=O)N2)ccc1OC` in HPGD inh = -1%
`COc1cccc(NC(=O)CCSc2ccc(C)cc2)c1` in HPGD inh = -21%

The results go on:
SMILES	HPGD inh
CC(C)(C)OC=O	-16%
Cn1nc(C(F)(F)F)c(/C=N/OC(=O)c2ccccc2Cl)c1SCc1ccc(Cl)cc1	-8%
COC(=O)C1=C(C)N(Cc2ccccc2)C(=O)N[C@@H]1c1ccccc1	-3%
CC1CN(C(=O)c2ccccc2C(=O)c2ncc[nH]2)CC(C)O1 (centres undefined)	-15%
Nc1nc2n(n1)C(c1ccco1)CC(c1ccc(Cl)cc1)N2 (centres undefined)	-11%
Cc1cc(SCC(=O)c2ccccc2)nc(SCC(=O)c2ccccc2)n1	28µM*
COC(=O)[C@H](C)NC(=O)NC1CCCc2ccccc21 (some centres undefined)	-2%
O=C1c2ccccc2C(=O)N1OCc1ccccc1	-6%
CCOC(=O)N1CCN(C(=O)Cn2nc(C)c3sc4ccccc4c3c2=O)CC1	-20%
Nc1nnc(SCC(=O)Nc2ccc(F)c(Cl)c2)n1-c1ccccc1	-5%
COc1ccc2oc3ccc(OC)cc3c(=O)c2c1	?
c1cncc(-c2nc(N3CCCCCC3)c3ccccc3n2)c1	-20%
O=C(CNC(=S)NC(=O)C1CCCCC1)c1ccccc1	-3%
CCCOc1ccc(N2C(=O)CC(N3CCN(C(=O)c4ccco4)CC3)C2=O)cc1 (centres undefined)	7%
Cc1ccc(NC(=O)CN2C(=O)S/C(=C\c3cc(C)n(C)c3C)C2=O)cc1	-1%

Reformatted as labelled records: entries from further up
O=C(Cn1cccc1C(=O)c1ccccc1)NCc1ccccn1
  HPGD inh: -5%

Cn1c(SCc2c(F)cccc2Cl)nnc1-c1cnccn1
  HPGD inh: -22%

Cc1ccccc1Cn1c(Cc2ccccc2)nc2ccccc21
  HPGD inh: -10%

O=C(c1cc2nc(-c3ccccc3)cc(-c3ccccc3)n2n1)N1CCN(C(=O)c2ccco2)CC1
  HPGD inh: ?

(next part)
SMILES	HPGD inh
COc1ccccc1/C=N/NC(=O)C1=NNC(c2ccccc2)(c2ccccc2)C1	-8%
CSc1nnc(-c2sc3cc(C(F)(F)F)cnc3c2-c2ccccc2)n1C	?
O=C1CCCC2=C1C1(CCCCC1)N=C(Nc1nc3ccccc3s1)N2	?
COC(=O)COC(=O)c1ccccc1NC(=O)c1ccccc1	-4%
Cc1ccccc1-n1nc(C)c2cc(C(=O)N3CCOCC3)sc21	-16%
COC(=O)c1sc(S(=O)(=O)Nc2ccc(Br)cc2)c(C(=O)OC)c1C	-4%
CC(=O)NS(=O)(=O)c1cccnc1Nc1cccc(Cl)c1	-8%
Cc1ccc(S(=O)(=O)N2CCN(C(=O)CCC(=O)OCC(=O)Nc3cccc(C#N)c3)CC2)cc1	1%
CC1(c2ccccc2)CC(C)(C)N2C(=O)/C(=C3\SC(=S)NC3=O)c3cccc1c32 (centres undefined)	-26%
CCCCN(CC)CCCNC(=O)c1cc2c(=O)n(C)c3ccccc3c2n1C	?
C/C(=N/NC(=O)Cc1cccn1C)c1ccccc1	-8%
O=[N+]([O-])c1ccc(C(=Nc2cccc3ccccc23)N2CCOCC2)cc1	-6%

Compounds listed so far that contain a tert-butyl group:
SMILES	HPGD inh
CCOC(=O)C(CSCc1ccccc1)NC(=O)OC(C)(C)C (centres undefined)	-4%
CC(C)(C)OC=O	-16%
